From PubChem BioAssay
RGS16-Gao – RGS16-Galphao interaction regulator (human); O15492+P09471; bead-based flow cytometry RGS16-Galphao binding, fluorescence; actives lie on both sides; binding response (% of control), % at 10 µM; actives 0.38% (n = 220,000);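 active means below 25% or above 175%, edge rows of some plates excepted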;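 further: Galphao activated by GDP with aluminum fluoride before binding; 100% = wells without compound and 0% = beads without RGS; some results beyond the cut were filed as inactive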
PKD1 inh – inhibitors of human PKD1 kinase | Q15139 | actives 0.056% (n = 200,000) | PKD1 kinase fluorescence polarization assay | AID 797 | inhibition, %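 (about 10 µM by stock and volumes)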;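 active means inhibition of 50% or more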;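 further: controls were vehicle for no effect and a reference inhibitor for full effect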
Target sequence (Q15139 whole entry, looked up): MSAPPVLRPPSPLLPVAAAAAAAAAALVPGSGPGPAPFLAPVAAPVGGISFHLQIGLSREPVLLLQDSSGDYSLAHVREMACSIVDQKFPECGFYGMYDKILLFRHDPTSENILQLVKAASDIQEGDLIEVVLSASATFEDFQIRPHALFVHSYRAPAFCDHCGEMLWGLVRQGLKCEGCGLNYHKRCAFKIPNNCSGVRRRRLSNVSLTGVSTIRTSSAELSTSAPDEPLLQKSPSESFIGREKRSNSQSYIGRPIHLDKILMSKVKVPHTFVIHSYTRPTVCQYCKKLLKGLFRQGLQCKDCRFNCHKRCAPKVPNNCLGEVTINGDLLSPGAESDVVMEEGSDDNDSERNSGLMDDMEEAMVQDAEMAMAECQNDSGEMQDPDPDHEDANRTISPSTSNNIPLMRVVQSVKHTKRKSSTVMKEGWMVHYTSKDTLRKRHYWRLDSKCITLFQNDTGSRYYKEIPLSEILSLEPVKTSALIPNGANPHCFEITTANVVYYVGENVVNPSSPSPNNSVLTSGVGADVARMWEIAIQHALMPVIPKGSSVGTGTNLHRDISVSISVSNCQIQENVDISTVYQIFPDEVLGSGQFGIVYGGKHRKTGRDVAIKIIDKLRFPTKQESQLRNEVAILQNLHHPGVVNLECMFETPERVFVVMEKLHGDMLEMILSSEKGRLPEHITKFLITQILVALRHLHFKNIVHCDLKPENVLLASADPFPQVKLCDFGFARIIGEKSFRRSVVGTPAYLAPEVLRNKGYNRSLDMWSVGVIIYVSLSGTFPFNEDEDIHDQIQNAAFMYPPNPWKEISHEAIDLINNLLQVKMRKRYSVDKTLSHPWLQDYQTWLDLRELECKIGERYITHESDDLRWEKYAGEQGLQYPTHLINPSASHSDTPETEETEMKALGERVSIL
Insulin prom inh – TRM-6 insulin promoter activity inhibition; inhibition, % at 2 µM; TRM-6 cells (human fetal islet line), insulin promoter-eGFP reporter, imaging; reporter expression induced with tamoxifen; actives 0.9% (n = 130,000);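 active means inhibition above the mean plus 3 SD, with well images judged a real hit on visual review, cut at about 60% in these data, passing the limit was not always enough; inconclusive means inhibition over the cutoff but images rejected on review; inactive means inhibition not above the cutoff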
HSV augment – increases HSV replication in cells; HSV replication augmentation in cells, fold increase; maximum fold increase; actives 0.005% (n = 220,000);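 active means peak rise of 1.5-fold or more in the series; inconclusive means self-fluorescent or not available for retest; tested in PC3 cells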;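 further: first round at 10 µM; read as green reporter fluorescence; hits show the peak of a series up to 25 µM; 1 = signal of infected wells without compound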
GALR2 agonist – activates the human galanin receptor 2; O43603; GALR2-expressing cells, agonist activation read-out; activation, %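 (tested at 5 µM)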; actives 0.48% (n = 140,000); AID 803;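 active means above mean plus 3 SD of all compounds, about 5% in these data, not always enough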;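 further: 0% = vehicle buffer wells and 100% = reference agonist at full effect; tested in CHO reporter cells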
Insulin prom inh cell count – further read-out of Insulin prom inh, marked with its call; normalized cell count, %; measured here: cell count, toxicity; reference of the scale not given here;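 cells exposed to compound for 48 h; stained nuclei by imaging scaled within each plate; lower means fewer cells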
HSV augment primary fold – further read-out of HSV augment, marked with its call; fold increase; compound at 10 µM; measured here: primary screen fold increase 10 uM; tested in PC3 cells;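 GFP signal in the first replicate; 1 = infected wells without compound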
An asterisk follows results filed as active; i = inactive; ? = inconclusive; . = no result given. Not a hit list; any-hit rate near 1.3%.

SMILES	RGS16-Gao	PKD1 inh	Insulin prom inh	Insulin prom inh cell count	HSV augment	HSV augment primary fold	GALR2 agonist
CCOC(=O)c1ccc(NC(=O)CN2C(=O)CSC2=O)cc1	123	-3	28	103	i	0.83	-0.1
COc1cc(/C=C/C(=O)O)ccc1OCc1ccc([N+](=O)[O-])cc1	114	-4	25	37	i	1	.
COc1ccc(N2CCN(C(=O)COc3ccc4ccccc4c3)CC2)cc1	104	6	19	168	i	1	-3.2
Cc1nn(CC(=O)Nc2cccnc2)c(C)c1[N+](=O)[O-]	113	-2	.	.	i	1	.
Cc1cc(NC(=O)CSc2ncccn2)no1	107	-4	4	35	i	0.91	0.5
CC1CCN(CCCn2c(=S)[nH]c3ccccc3c2=O)CC1	115	-3	-31	81	i	1	-1.4
CCOC(=O)C1CCN(C(=O)COc2ccc(Cl)cc2C)CC1	99	1	-41	107	i	0.92	-1.6
Cc1ccnc2nc(C(=O)NC3CCCc4ccccc43)nn12 (centres undefined)	98	3	.	.	i	0.93	.
O=S(=O)(c1ccccc1)c1ncc(C(F)(F)F)cc1O	101	4	-23	74	.	.	.
CC(C)=CCN1CCN(Cc2cnc(N3CCOCC3)s2)CC1CCO (centres undefined)	101	-6	.	.	i	1.5	.
Cc1ccccc1NS(=O)(=O)c1ccc2c(c1)NC(=O)CO2	105	-5	.	.	i	0.98	.
CCOc1ccccc1CNC(=O)C1CCCN(c2nc3ccccc3o2)C1 (centres undefined)	103	-5	.	.	i	0.88	-1.6
CCSc1nc2c(c(-c3ccc(C)o3)c1C#N)CCCC2	55	1	3	93	i	1	-0.4
CCn1c(=O)c(C(=O)NCCNCCO)c(O)c2ccccc21	99	16	.	.	i	0.98	-1.3
Cc1ccc(N2C(=O)CN=C2Nc2nc(C)cc(C)n2)cc1	99	.	.	.	i	1	.
CN1CCC(N(C)C(=O)CCc2nc3ccccc3n2-c2ccccc2)CC1	100	3	-35	64	i	0.9	.
Clc1ccc(OCc2cc(-c3ccccc3)no2)cc1Cl	105	1	-159	145	i	0.97	-4.1
O=C1SC(SC(=Nc2ccccc2)Nc2ccccc2)C(=O)N1c1ccccc1 (centres undefined)	117	-7	11	71	i	0.95	-2.1
Cc1ccc(C(=O)/C=C/Nc2ccc3c(c2)OCO3)cc1	100	-5	-26	84	i	0.98	-2.4
COc1ccc2sc(SCCCS(=O)(=O)O)[n+](CCCS(=O)(=O)[O-])c2c1	104	10	-43	78	i	1.2	-0.4

Continued (two carried over from the part before).
SMILES	RGS16-Gao	PKD1 inh	Insulin prom inh	Insulin prom inh cell count	HSV augment	HSV augment primary fold	GALR2 agonist
Cc1ccc(C(=O)/C=C/Nc2ccc3c(c2)OCO3)cc1	100	-5	-26	84	i	0.98	-2.4
COc1ccc2sc(SCCCS(=O)(=O)O)[n+](CCCS(=O)(=O)[O-])c2c1	104	10	-43	78	i	1.2	-0.4
Cc1cc(C(=O)OCC(=O)Nc2cc(S(=O)(=O)N3CCOCC3)ccc2Cl)c(C)o1	115	-8	-52	94	i	0.88	-2.4
Cc1nc2ccccc2n1CC(O)COc1ccc(Br)cc1 (centres undefined)	102	-4	.	.	i	0.92	.
CCOc1ncccc1C(=O)Nc1cccc(-c2nnc3n2CCCCC3)c1	98	-4	.	.	i	0.88	.
CCCCC(=O)Nc1ccc(C(=O)Nc2cc(C(F)(F)F)ccc2Cl)cc1	103	-1	44	100	i	0.82	1.3
Cc1c(C(=O)N(Cc2ccccc2)Cc2cccnc2)cnn1-c1ccc(F)cc1	103	.	.	.	i	1.1	.
C/C(=N\NC(=O)Cc1cccc2ccccc12)c1ccncc1	101	4	43	154	i	0.85	0.5
CCc1ccc(OCc2nnc(NC(=O)c3cccs3)s2)cc1	102	-12	-8	88	i	0.98	-1.9
COc1cc(Cl)ccc1NC(=S)N(CCN1CCOCC1)C1CCN(C(C)=O)CC1	105	-6	-29	122	i	0.96	.
COc1ccc(C(=O)N(CC2CCCO2)C(C(=O)NC2CCCC2)c2ccc(Cl)cc2)cc1OC (centres undefined)	62	-13	-31	89	i	1.1	-2.7
O=C(O)c1ccc(F)c(S(=O)(=O)Nc2ccccc2Cl)c1	63	3	44	155	i	1.2	-0.2
O=C(Nc1nnc(C2CC2)s1)c1cc(S(=O)(=O)N2CCN(c3ccccc3)CC2)ccc1Cl	95	-3	19	174	i	0.97	0.0
CCCCCC(=O)Nc1ccc2ccccc2c1	36	2	7	60	i	1.1	-1.4
O=C(OCc1nnc(-c2ccccc2)o1)c1cc(=O)c2ccccc2o1	103	3	.	.	i	1	-0.9
COc1ccccc1N1C(=O)CSC1=NC(=O)c1ccccc1	108	.	.	.	i	1.1	.
Cc1csc(C(C#N)C(=O)c2cc3ccccc3o2)n1 (centres undefined)	98	0	-27	60	i	0.87	-0.5
O=C(NCCCN1CCOCC1)c1ccccc1-c1ccccc1	105	2	-147	91	i	1	-2.1
COc1ccc2c(COC(=O)CCS(=O)(=O)c3ccccc3)cc(=O)oc2c1	108	-1	-18	175	i	0.89	.
COc1ccc(C(=O)OCCCN(C)C)cc1OC	111	5	41	58	i	1	-0.6
CC(C)CNC(=O)CN(C)S(=O)(=O)c1ccc(F)cc1	116	22	8	147	i	0.97	-0.6
CC(C)NC(=O)c1c2c(nc3ccccc13)CCCC2	62	-14	-21	85	i	1	-2.1
Cc1ccccc1OCC(=O)NC(=S)Nc1ccc(N2CCCC2)cc1	100	-1	-21	131	i	0.93	.
CC(CN1CCOCC1)OC(=O)c1ccc2c(c1)OCCO2 (centres undefined)	-131	-4	-13	65	i	0.94	-2.1
COc1ccc(C(=O)C2CCCN(C(=O)c3ccc4cc[nH]c4c3)C2)c(C)c1 (centres undefined)	107	-3	.	.	i	1	.
CCOC(=O)c1sc(NC(=O)c2ccncc2)c(C#N)c1C	62	2	3	90	i	1.1	-0.9
O=C(COC(=O)c1ccccc1C(=O)N1CCN(c2ccccc2)CC1)NCc1ccccc1	94	4	.	.	i	1	.
O=C(CN1CCN(Cc2ccccc2Cl)C1=O)NC1CCCCCC1	102	0	0	77	i	1	-0.5
COc1ccc(N(C(=O)Cn2nnc3ccccc32)C2(C(=O)NC3CCCC3)CCCCC2)cc1	104	-7	-18	108	i	1.2	-1.4
CC(C)(C)n1nnnc1C(c1cccnc1)N1CCN(c2cccc(C(F)(F)F)c2)CC1 (centres undefined)	101	2	-79	127	i	0.9	-1.4
O=C1CN(C(=O)/C=C/c2ccccc2F)c2ccccc2N1	92	-3	.	.	i	0.81	.
C[n+]1cc[nH]c1SCC(=O)c1ccccc1	104	-2	7	41	i	0.84	-2.4
Cc1cc2ncc(S(=O)(=O)C(C)(C)C)c(N)n2n1	102	-2	.	.	i	0.81	.
CC1CC(=O)NN=C1c1ccc(N(C)C)c([N+](=O)[O-])c1 (centres undefined)	103	-6	4	113	i	1	-1.1
Cc1cc(N2C(=O)CC(Cc3ccccc3)C2=O)no1 (centres undefined)	104	-7	67	51	i	0.98	-0.8
Cc1ccc(OCC(O)Cn2c(=N)n(CCN3CCCCC3)c3ccccc32)cc1 (centres undefined)	105	-3	.	.	i	0.61	-1.4
CCCCn1nc(-c2ccccc2)c2nc3ccccc3nc21	98	1	11	164	?	.	-1.9
CC(C)Oc1ccc(/C(O)=C2/C(=O)C(=O)N(CCCn3ccnc3)C2c2cccnc2)cc1 (centres undefined)	107	7	.	.	i	0.96	-2.6
c1ccc2c(c1)ncn2-c1ccc(-c2ccnc3ncnn23)cc1	96	-8	.	.	i	0.88	.
Cc1ccc(C2=NN(C(=O)CCCC(=O)O)C(c3ccco3)C2)cc1 (centres undefined)	103	3	.	.	i	1	.
CCC1(c2ccccc2)NC(=O)N(Cc2cccc([N+](=O)[O-])c2)C1=O (centres undefined)	101	-7	.	.	i	0.9	.
COc1ccc(C(=O)NCc2ccc(-c3nc4ccccc4s3)cc2)cc1OC	99	-9	28	113	i	0.91	-2.4
CSc1nc(Oc2cccc(C(F)(F)F)c2)cc(C(F)(F)F)n1	99	-2	-15	96	i	0.96	-0.3
CCCOC(=O)CCCCC1SCC(NC(=O)OC)C1NC(=O)OC (centres undefined)	95	-4	.	.	i	0.95	-1.9
CCOC(=O)C1=C(C)N=C2c3ccccc3C(=O)C2C1c1ccccc1 (centres undefined)	102	-2	33	72	i	0.97	1.8
Cc1ccccc1C1CC(c2cccs2)=NN1S(C)(=O)=O (centres undefined)	104	-5	.	.	i	1.1	.
COC(=O)c1cccnc1-n1c(=O)c2cccnc2n(Cc2cccc([N+](=O)[O-])c2)c1=O	104	-7	.	.	i	0.94	.
COc1ccc(/C=N/NC(=O)CNC(=O)c2ccc(S(=O)(=O)N3CCCC3)cc2)c(OC)c1	96	-6	.	.	i	0.97	.
Cc1cc(C)n(C(=O)c2ccc(S(=O)(=O)N3CCCC3)cc2)n1	101	-3	17	173	i	0.95	-1.9
COc1nnc(-c2ccc(N3CCOCC3)c(NC(=O)C3CCCCC3)c2)c2ccccc12	105	-4	.	.	i	0.86	-1.4
CCCn1c(SCCc2ccccc2)nc2c1c(=O)[nH]c(=O)n2C	95	-5	.	.	i	0.78	0.1
O=C(CNCCC1=CCCCC1)Nc1ccccc1N1CCCCC1	101	-6	0	85	i	1.1	1.4
Cc1ccc(C(=O)N2CCN(c3ccc(NC(=O)CSc4ccc(Cl)cc4)cc3)CC2)cc1	108	6	38	138	i	0.77	-1.3
Cc1onc(-c2ccccc2)c1C(=O)N/N=C(\N)COc1ccc(Cl)cc1	100	1	45	136	i	1.1	-0.6
CCOc1ncccc1C(=O)OCC(=O)c1ccc(Cl)s1	89	-3	20	63	i	0.92	-2.1
N#Cc1c(/N=C/c2cc3ccccc3s2)sc2c1CCC2	33	1	25	103	i	0.94	-1.6
CC(=O)NC1=NN(C(C)=O)C(c2ccccn2)S1 (centres undefined)	101	3	.	.	i	1.1	.
CCC(C(=O)NCc1ccccc1OC)c1ccccc1 (centres undefined)	99	-5	.	.	i	0.98	.
COc1ccc(Nc2nnc(-c3ccc(C)cc3)c3ccccc23)cc1C(=O)N1CCCCC1	112	1	-58	43	i	0.69	0.5
Cc1ccc(OCCN2C(=O)OC(C)(C)C2(C)O)cc1 (centres undefined)	94	12	.	.	i	1.1	-1.9
CCCNC(=O)c1noc2c1CCc1ccccc1-2	98	0	.	.	i	0.87	-0.5
CN(C)C(=O)COC(=O)c1ccccc1Nc1ccc(SC(F)F)cc1	99	-7	.	.	i	0.9	-1.5
The results go on:
SMILES	RGS16-Gao	PKD1 inh	Insulin prom inh	Insulin prom inh cell count	HSV augment	HSV augment primary fold	GALR2 agonist
O=C(c1ccc(S(=O)(=O)N2CCCCCC2)cc1)N1CCC(CN2C(=O)c3cccc4cccc(c34)C2=O)CC1	101	0	.	.	.	.	-1.2
Cc1cnc(NC2=NCCC2)s1	100	-5	.	.	i	0.96	.
CC(=Nc1ccccc1)C1=C(O)CSC1=O	73	-5	11	90	i	1.2	-1.2
CCN1CCN(Cc2nc3c(c(=O)n(C)c(=O)n3C)n2Cc2cccc3ccccc23)CC1	102	-4	63	110	i	0.9	-1.4
CCOc1cccc(/C=C/C(=O)O)c1	101	3	.	.	i	1	.
Cc1ccc(S(=O)(=O)N2C3C=CC(C3)C2C(=O)O)cc1 (centres undefined)	102	2	.	.	i	1	-1.8
Cc1ccc(C(=O)Oc2oc(-c3ccco3)nc2C=Nc2ccc(Cl)cc2)cc1	83	-10	-37	165	i	1	-1.2
COc1ccc(CC(=O)N2CCc3ccccc32)cc1	101	-10	-43	114	i	1.1	-1.1
O=C(NC(Cc1c[nH]c2ccccc12)C(=O)O)c1ccc(F)cc1 (centres undefined)	101	-7	.	.	i	0.97	.

Six of the entries above in order of their number in HSV augment primary fold, lowest first.
| SMILES | HSV augment primary fold |
| --- | --- |
| CCN1CCN(Cc2nc3c(c(=O)n(C)c(=O)n3C)n2Cc2cccc3ccccc23)CC1 | 0.9 |
| Cc1cnc(NC2=NCCC2)s1 | 0.96 |
| O=C(NC(Cc1c[nH]c2ccccc12)C(=O)O)c1ccc(F)cc1 (centres undefined) | 0.97 |
| Cc1ccc(C(=O)Oc2oc(-c3ccco3)nc2C=Nc2ccc(Cl)cc2)cc1 | 1 |
| COc1ccc(CC(=O)N2CCc3ccccc32)cc1 | 1.1 |
| CC(=Nc1ccccc1)C1=C(O)CSC1=O | 1.2 |

As a working copy, 3 of the compounds above.
SMILES	RGS16-Gao	PKD1 inh	Insulin prom inh	Insulin prom inh cell count	HSV augment	HSV augment primary fold	GALR2 agonist
CCOc1cccc(/C=C/C(=O)O)c1	101	3	.	.	i	1	.
Cc1ccc(S(=O)(=O)N2C3C=CC(C3)C2C(=O)O)cc1 (centres undefined)	102	2	.	.	i	1	-1.8
Cc1ccc(C(=O)Oc2oc(-c3ccco3)nc2C=Nc2ccc(Cl)cc2)cc1	83	-10	-37	165	i	1	-1.2
